# ClpP mod: qHTS Assay for Activators of ClpP; Potency, µM (highest dose often 57.5 µM), inactives show at the highest dose activity change, negative = active; AID 651965, 2013; hit rate 1.9% among 340,000; purified B. subtilis ClpP, FRET peptide cleavage, 20 min; active = well fitted falling curve with a large enough effect; inconclusive = small, poorly fitted or top-dose-only effect; inactive = no such curve, though single readings can be large or run the other way; also: potency is read from the fitted curve at half-maximal effect; the source files actives as falling curves though it sought activators and does not explain the sign; nearly all actives have a fitted effect of over 65% in size; many hits overshoot -100%
# Target sequence (P80244 whole entry, looked up): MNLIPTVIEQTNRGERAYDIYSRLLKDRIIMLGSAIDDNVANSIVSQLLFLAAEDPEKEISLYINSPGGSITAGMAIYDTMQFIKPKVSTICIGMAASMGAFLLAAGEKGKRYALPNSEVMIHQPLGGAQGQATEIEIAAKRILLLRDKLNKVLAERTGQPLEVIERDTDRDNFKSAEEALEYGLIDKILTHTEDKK
#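 FRET quenching reversal measured ClpP activation: 10 microg/mL B. subtilis ClpP at pH 8 with the FRET-FV decapeptide, read at 430 nm after 320 nm excitation. The 20-min minus 0-min signal was scaled between DMSO/no-enzyme wells and ADEP (5.8 microM final).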
# D2 potentiator: Beta-Arrestin HTS for Positive Allosteric Modulators of the Human D2 Dopamine Receptor: Potentiators | DiscoveRx D2 beta-arrestin cells, luminescence, 90 min; 100% = 57 uM dopamine signal | hit rate 0.23% among 360,000 | potentiation, % (test concentration not listed); active = potentiation of 50% or more; inconclusive = 30% to 50%; inactive = 30% or less;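 also: compound concentration not given in the record; tested on top of an EC20 dose of dopamine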
#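 D2 cells co-treated with compound plus 50 nM dopamine (EC20) for 90 min at 37 deg C to detect potentiation. Beta-arrestin recruitment was read as enzyme-fragment luminescence after 1 h at ambient temperature. Full response was set by 57 uM dopamine.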
# TRPV1 PAM: HTS Assay for Compounds that Act as Potentiators of the Vanilloid Receptor 1 | Transient receptor potential cation channel subfamily V member 1 (Homo sapiens), Q8NER1 | TRPV1-expressing cells, Fluo-8 calcium influx, capsaicin EC20 potentiation; host cell line not named in the record; control for the full effect not named in the record | potentiation, % at 8.33 µM | hit rate 0.02% among 320,000 | AID 540277, 2011; active means potentiation above 80%; inconclusive means 30% to 80%; inactive means below 30%; also: 0% is about no effect
# Target sequence (Q8NER1 whole entry, looked up): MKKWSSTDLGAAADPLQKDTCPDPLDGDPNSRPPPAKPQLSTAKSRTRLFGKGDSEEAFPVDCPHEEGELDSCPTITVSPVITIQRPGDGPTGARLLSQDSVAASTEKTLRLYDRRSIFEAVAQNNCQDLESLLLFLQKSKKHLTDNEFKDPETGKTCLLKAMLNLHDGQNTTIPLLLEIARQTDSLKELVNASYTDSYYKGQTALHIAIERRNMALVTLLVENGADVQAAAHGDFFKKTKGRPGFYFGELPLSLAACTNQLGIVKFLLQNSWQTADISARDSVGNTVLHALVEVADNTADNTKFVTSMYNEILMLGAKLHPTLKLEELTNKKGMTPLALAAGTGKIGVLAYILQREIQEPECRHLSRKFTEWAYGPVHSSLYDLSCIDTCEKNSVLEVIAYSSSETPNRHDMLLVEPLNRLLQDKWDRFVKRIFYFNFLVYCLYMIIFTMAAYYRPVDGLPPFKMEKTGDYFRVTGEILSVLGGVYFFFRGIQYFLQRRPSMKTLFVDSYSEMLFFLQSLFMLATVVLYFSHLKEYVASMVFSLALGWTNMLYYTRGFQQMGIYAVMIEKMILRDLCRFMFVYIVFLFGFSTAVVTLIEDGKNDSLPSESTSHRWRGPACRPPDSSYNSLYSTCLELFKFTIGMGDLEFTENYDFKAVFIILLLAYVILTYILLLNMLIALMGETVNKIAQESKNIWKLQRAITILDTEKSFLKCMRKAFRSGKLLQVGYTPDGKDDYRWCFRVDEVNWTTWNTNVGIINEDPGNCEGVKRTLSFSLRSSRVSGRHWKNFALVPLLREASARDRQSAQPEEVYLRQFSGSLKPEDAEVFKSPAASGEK
#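 Fluo-8 calcium influx in TRPV1-expressing cells, kinetic read (ex 480/em 520 nm). Compound added and read 3 min for agonist activity, followed by capsaicin at EC20 final and 2 min further read for enhancement.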
# gsp antagonist: qHTS for Antagonists of gsp, the Etiologic Mutation Responsible for Fibrous Dysplasia/McCune-Albright Syndrome: qHTS. hit rate 0.4% among 340,000. Potency, µM (doses to about 76.9 µM), for the others: at the highest dose activity change, negative = inhibition, usual class: inhibitors. gsp-mutant cells, cAMP HTRF, 30 min; control for the full effect not named in the record; active = falling curve of any shape with a large fitted effect; inconclusive = falling curve, mostly with a smaller effect; inactive = flat or rising curve; cell line not stated here;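 also: intracellular cAMP measured with PDE inhibitor Ro 20-1724 present during compound exposure; potency is read from the fitted curve at half-maximal effect; % is scaled to controls: 0 for no effect and ±100 for the full control effect; nearly all actives have a fitted effect of over 65% in size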
#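 HTRF cAMP read-out (cAMP-d2 plus anti-cAMP antibody-K in lysis buffer, 30 min RT). Before lysis, cells are exposed to compounds with […] for 30 min at 37C in DPBS containing Ca/Mg, BSA and Tween 20.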
# Sfp inh: qHTS Assay for Inhibitors of Bacillus subtilis Sfp phosphopantetheinyl transferase (PPTase). Biochemical Sfp PPTase activity, qHTS. Potency, µM, inactives show max response, negative = inhibition, usual class: inhibitors. hit rate 3.5% among 310,000; active = well fitted inhibition curve with a large enough effect; inconclusive = small, poorly fitted or top-dose-only effect, or another doubt; inactive = no such curve, though single readings can be large or run the other way;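 also: the enzyme is Sfp with the accession as filed and its product quenches rhodamine fluorescence; potency is read from the fitted curve at half-maximal effect; 0% = enzyme reaction without inhibitor and -100% = no enzyme wells; top concentration of the series not given in the record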
#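 Compounds were incubated with enzyme (final 15 nM) for 15 min at room temperature before substrate addition started the reaction. Fluorescence at 525 nm excitation, 598 nm emission was recorded immediately and after 30 minutes.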
# Menin-MLL FL inh: qHTS Assay for Inhibitors Targeting the Menin-MLL Interaction in MLL Related Leukemias: Competition With Fluorescein Labeled MLL-derived Peptide; 290,000 tested, under 10 active; Fluorescence polarization, fluorescein-MLL peptide displacement from menin; FP activity change, % at 61.4 µM; inconclusive = falling polarisation curve, or a change in total fluorescence; inactive = total fluorescence flat and polarisation flat or rising; no compound was filed as active; the % refers to the polarisation; negative = inhibition;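 also: % of control where 0% means no effect; inhibitors lower the polarisation; unlabelled MLL peptide was the positive control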
# gsp ag: qHTS for Agonist of gsp, the Etiologic Mutation Responsible for Fibrous Dysplasia/McCune-Albright Syndrome: qHTS | AID 624287, 2012 | gsp mutant cells, cAMP HTRF, 30 min; control for the full effect not named in the record | Potency, µM (series often up to 76.9 µM), for inactives: at the top dose activation (cAMP increase), most hits filed as activators | hit rate 0.13% among 340,000; active = well fitted activation curve with a large enough effect; inconclusive = small, poorly fitted or top-dose-only effect, or another doubt; inactive = no such curve, though single readings can be large or run the other way; cell line not stated here;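 also: phosphodiesterase inhibitor Ro 20-1724 added with compounds to block cAMP breakdown; potency is read from the fitted curve at half-maximal effect; nearly all actives have a fitted effect of over 60% in size; about a fifth of the inactives were tested at one dose only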
#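 Cells in DMEM/10% FBS with G418 were pretreated with compounds in DMSO plus […] (300 uM stock) for 30 min at 37C. cAMP was measured by HTRF (cAMP-d2 plus anti-cAMP antibody-K) after 30 min at room temperature.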
# Starred values were filed as active, the others as inactive; ? = inconclusive; / = no result given; [ ] = remark or other dose.
[1] CCOC(=O)C1C(=O)C=C(c2ccc(C)cc2)CC1c1ccc([N+](=O)[O-])cc1 (stereo unspecified)
[2] Brc1ccc(OCc2ccccc2)c(CNCC2CCCO2)c1 (stereo unspecified)
[3] O=C(COc1ccccc1Br)NC1CC1
[4] CSc1ccc(C=NNc2ccc(S(=O)(=O)Nc3ccccc3C(=O)O)cc2[N+](=O)[O-])cc1
[5] CC(C)C(=O)Nc1nnc(SCC(=O)N2c3ccccc3CC2C)s1 (stereo unspecified)
[6] CCOc1cc2[nH]c(=S)n(C3CC3)c(=O)c2cc1OCC
[7] Cc1cc(N2CCOCC2)nc2ccc(NC(=O)CCC(=O)N3CCCCC3)cc12
[8] CC(C)Cc1nnc(NC(=O)c2ccncc2)s1
compound no.	1	2	3	4	5	6	7	8
ClpP mod	-1.3%	-0.1%	-1.1%	1.8%	-2.3%	-1.1%	7.1µM*	-1.5%
D2 potentiator	-7	-20	-12	0	-3	-5	-4	6
TRPV1 PAM	3	-24	-12	/	2	10	3	4
gsp antagonist	-13%	9%	22%	-19%	-2%	12%	-1%	-4%
Sfp inh	11%	5%	2%	/	13%	2%	11%	1%
Menin-MLL FL inh	1.0	2.0	/	/	-8.8	-2.7	3.7	-1.4
gsp ag	-43%[inhibitor]	9%	15%	-12%[15.4 µM]	-19%	-20%	7%	-60%[inhibitor]

[9] COc1ccc(N2C(=O)/C(=C/c3cccnc3)NC2=S)cc1
[10] CCOC(=O)CC1(NC(=O)c2cc(COc3cccc(OC)c3)on2)CCCCC1
[11] O=C(Cn1cc([N+](=O)[O-])cn1)Nc1cccnc1
[12] O=C(CSc1nc2ccc(Cl)cc2[nH]1)NC1CCCc2ccccc21 (stereo unspecified)
[13] NC(=O)CSc1nnc(-c2cnccn2)n1-c1ccccc1
[14] CCC(NC(=O)c1cc(COc2c(F)cccc2F)on1)c1ccncc1 (stereo unspecified)
[15] Cc1ccccc1-n1nc2c(c1NC(=O)CCCl)CSC2
[16] Cc1cc(C)nc(SCC(=O)Nc2ncc(Cc3ccc(Cl)c(Cl)c3)s2)n1
compound no.	9	10	11	12	13	14	15	16
ClpP mod	1.3%	1.3%	/	/	-1.7%	1.0%	-0.4%	-2.1%
D2 potentiator	-12	0	4	7	-6	-14	-1	2
TRPV1 PAM	0	-7	1	-6	8	-8	8	4
gsp antagonist	-12%	-30%	15%	-23%	0%	-3%	8%	8%
Sfp inh	-4%	-12%	15%	-1%	6%	4%	9%	4%
Menin-MLL FL inh	4.5	-4.8	1.0	5.6	-2.6	/	-12	0.0
gsp ag	6%[15.4 µM]	-18%	1%[15.4 µM]	16%	30%	-31%[inhibitor]	6%	-26%

[17] CC(C)OCCCNC(=O)c1ccc(C2SCC(=O)N2Cc2ccco2)cc1 (stereo unspecified)
[18] Cc1ccc(C)n1-c1ccc(-n2cnnn2)cc1
[19] Cc1nc(NC(=O)COC(=O)c2ccc(S(=O)(=O)N3CCc4ccccc4C3)cc2)c(Cl)cc1Cl
[20] CCc1c(C)sc2nc(C(C)C)nc(SCC(=O)N3CCc4ccccc4C3)c12
[21] C[C@H](NC(=O)N1CCn2c1nc1ccccc12)C(=O)NCc1ccc2c(c1)OCO2
[22] COC(=O)c1ccc(CNC(=O)c2coc3ccccc3c2=O)cc1
[23] COc1ccccc1N1CCN(C(c2cccs2)C(C)NC(=O)c2ccco2)CC1 (stereo unspecified)
[24] CN(C)c1ccc(C(C#N)c2ccc(Cl)cc2)nn1 (stereo unspecified)
compound no.	17	18	19	20	21	22	23	24
ClpP mod	/	-10%	/	-2.6%	-1.6%	0.7%	-0.4%	/
D2 potentiator	-2	10	-12	-2	-8	-10	-11	-7
TRPV1 PAM	3	-7	9	-24	7	1	5	8
gsp antagonist	0%	9%	5%	-18%	-1%	7%	-12%	5%
Sfp inh	?	7%	-6%	-5%	13%	19%	5%	14%
Menin-MLL FL inh	-0.2	0.4	?	-1.6	/	0.4	0.1	-0.2
gsp ag	1%[15.4 µM]	14%	-1%[15.4 µM]	-32%[inhibitor]	-24%	2%	?	-41%[inhibitor]

[25] CCN(CC)c1ccc(C=C2C(=O)OC(C)(C(C)(C)C)OC2=O)cc1 (stereo unspecified)
[26] COc1ccc([C@H]2C[C@H](O)[C@@H](n3cc(C4CC4)nn3)CN2C(=O)c2cccs2)cc1
[27] COCCCNC(=O)CSc1nc2ccccc2c(=O)n1CCC(=O)NCCc1ccc(OC)c(OC)c1
[28] O=C1N=C(N2CCCC2C(=O)O)S/C1=C\c1ccco1 (stereo unspecified)
[29] CC1CN(C2CCN(C(=O)c3ccccc3Cl)CC2)CC(C)O1 (stereo unspecified)
[30] O=C(/C=C/c1cccc([N+](=O)[O-])c1)NCCSCc1ccccc1Cl
[31] CC(C)Sc1ncnc2c1oc1ccccc12
[32] CC(C)CCNc1nc(N)c([N+](=O)[O-])c(NCC2CCCO2)n1 (stereo unspecified)
compound no.	25	26	27	28	29	30	31	32
ClpP mod	/	-0.5%	0.5%	/	?	-13%	0.6%	0.6%
D2 potentiator	2	5	-6	-1	-6	-14	-15	-31
TRPV1 PAM	-6	/	3	2	-26	-4	-5	7
gsp antagonist	1%	/	4%	-5%	4%	-30%	6%	0%
Sfp inh	-2%	/	14%	-26%	-14%	-9%	-13%	-1%
Menin-MLL FL inh	1.3	/	1.8	?	-1.3	4.3	0.9	4.9
gsp ag	2%[15.4 µM]	?	-2%	4%[15.4 µM]	21%	-14%	5%	-2%[15.4 µM]

# Copied from the list.
# Entry of COc1ccc([C@H]2C[C@H](O)[C@@H](n3cc(C4CC4)nn3)CN2C(=O)c2cccs2)cc1 in ClpP mod: -0.5%
# Entry of CC(C)Sc1ncnc2c1oc1ccccc12 in ClpP mod: 0.6%
# Entry of COCCCNC(=O)CSc1nc2ccccc2c(=O)n1CCC(=O)NCCc1ccc(OC)c(OC)c1 in gsp antagonist: 4%
# Entry of CC(C)CCNc1nc(N)c([N+](=O)[O-])c(NCC2CCCO2)n1 (stereo unspecified) in TRPV1 PAM: 7
# Entry of CCN(CC)c1ccc(C=C2C(=O)OC(C)(C(C)(C)C)OC2=O)cc1 (stereo unspecified) in D2 potentiator: 2
# Entry of O=C1N=C(N2CCCC2C(=O)O)S/C1=C\c1ccco1 (stereo unspecified) in gsp ag: 4%[15.4 µM]
# Entry of CC1CN(C2CCN(C(=O)c3ccccc3Cl)CC2)CC(C)O1 (stereo unspecified) in TRPV1 PAM: -26

# More entries:
[33] COc1ccc(-c2cc(C(F)(F)F)n3nc(C(=O)NCc4ccco4)cc3n2)cc1
[34] Cc1cccc(C(CC(=O)O)NC(=O)C(F)(F)F)c1 (stereo unspecified)
[35] Cc1nc(NCc2cccnc2)c2c3c(sc2n1)CCCC3
[36] N#CCn1c(CN2CCCC2)nc2ccccc2c1=O
[37] CC(C)(C)OC(=O)NCCCC[C@H](NC(=O)c1nc[nH]c1C(=O)N1CCN(c2ccccc2)CC1)C(=O)OC(C)(C)C
[38] C=CCNC(=O)CCCOc1cccc(C)c1
[39] COc1ccc(C(=O)NCc2nnc(SCC(=O)N3CCc4ccccc43)n2CCc2ccccc2)cc1
[40] CCn1c(CSCc2ccc(F)cc2)nnc1SCC(=O)NCc1ccccc1
compound no.	33	34	35	36	37	38	39	40
ClpP mod	16µM*	/	/	/	-0.5%	0.2%	0.5%	-18%
D2 potentiator	-8	-8	11	0	2	2	4	8
TRPV1 PAM	-5	-5	1	-2	-10	-17	0	-6
gsp antagonist	-8%	10%	-12%	-2%	-5%	5%	-16%	0%
Sfp inh	-11%	0%	6%	20%	14%	14%	-5%	0%
Menin-MLL FL inh	-4.5	-5.0	1.9	-8.7	6.4	5.1	-1.4	4.6
gsp ag	?	18%[15.4 µM]	-28%	-19%	/	-11%	17%	0%

[41] O=C(NC(=S)Nc1ccc(N2CCOCC2)c(Cl)c1)c1cccs1
[42] Cc1ccccc1-c1nc2ccc(Cl)cc2c(=O)n1O
[43] C=CCOc1ccccc1CNCc1ccc(F)cc1
[44] COc1ccc(N)cc1-n1cnnn1
[45] O=C(NN1CCOCC1)c1ccco1
[46] Cc1ccccc1S(=O)(=O)Cc1ccc(C(=O)NC(C)c2ccc3c(c2)OCCO3)o1 (stereo unspecified)
[47] CCCCCC(=O)Nc1ccc(S(=O)(=O)Nc2cc(OC)nc(OC)n2)cc1
[48] COc1ccc(/C=C2\SC(=O)N(CCCC(=O)Nc3cc(Cl)ccc3C(=O)O)C2=O)cc1
[49] Cc1cc(C)n(C(=O)CN2C(=O)c3ccccc3C2=O)n1
compound no.	41	42	43	44	45	46	47	48	49
ClpP mod	/	-7.5%	0.6%	0.5%	1.6%	1.6%	0.0%	-12%	-0.5%
D2 potentiator	-1	-12	-20	-2	3	2	-1	-14	-6
TRPV1 PAM	0	-19	-8	-3	6	-4	11	/	3
gsp antagonist	-6%	-12%	8%	7%	13%	?	-26%	-17%	10%
Sfp inh	1%	1%	-5%	14%	/	-10%	8%	/	17%
Menin-MLL FL inh	0.2	5.0	-3.8	-5.0	/	5.1	-0.4	/	-1.6
gsp ag	-17%	1%	?	8%	13%	-29%	-3%[15.4 µM]	-23%	22%

# Three entries out of the list above, arranged by the value under D2 potentiator, falling.
item	molecule	D2 potentiator	gsp antagonist	Sfp inh	Menin-MLL FL inh	gsp ag
18	Cc1ccc(C)n1-c1ccc(-n2cnnn2)cc1	10	9%	7%	0.4	14%
16	Cc1cc(C)nc(SCC(=O)Nc2ncc(Cc3ccc(Cl)c(Cl)c3)s2)n1	2	8%	4%	0.0	-26%
42	Cc1ccccc1-c1nc2ccc(Cl)cc2c(=O)n1O	-12	-12%	1%	5.0	1%
